# High-throughput results (PubChem BioAssay)
# Ba CapD inh = Bacillus anthracis CapD inhibitors, primary screen, biochemical, fluorescence intensity | actives 0.23% (n = 140,000) | CapD gamma-glutamyltranspeptidase (Bacillus anthracis Ames Ancestor) | z-score (concentration not given with the values) | purified CapD enzyme, fluorescence intensity read-out; active compounds read low; some hits fall short of the stated cut | AID 492967, 2010;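 active means z-score under -4 in either of two replicates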;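 further: stock transfer was 100 nL into about 40 µL; score is relative to mean and spread of the plate; one replicate is shown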
# AID504770 = growth inhibition of E. coli YBA685, primary screen, V. cholerae RctB inhibitors | E. coli YBA685 rctB-dependent plasmid, OD600 growth, 3 h; active compounds read low | AID 504770, 2011 | z-score (concentration not given with the values) | actives 0.27% (n = 130,000);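 active means z-score under -2 on both plates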;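 further: wells of about 30 µL received 100 nL stock; score is relative to mean and SD of the test wells; the first replicate is given; strong numbers were not always called active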
# * = called active by the depositor; / = not tested or not shown. The list is partial; the hit share may differ from the screen's.
SMILES,Ba CapD inh,AID504770
COc1cc(-c2nc(=S)[nH][nH]2)cc(OC)c1OC,/,2
CN(C)/C=C(\C(=O)Nc1ccc(F)c(F)c1F)S(=O)(=O)c1ccccc1,-0.61,-0.9
O=C(NCc1cc(F)cc2c1OCOC2)c1ccc(N2CCOCC2)nc1,2.3,-0.9
CCc1ccc(OCC(=O)Nc2cc(-c3nc4ccccc4o3)ccc2OC)cc1,1.3,0.15
COCCN(Cc1ccccc1)C(=O)c1cccc(S(=O)(=O)N2CC(C)OC(C)C2)c1 (centres undefined),/,0.2
Cc1cc(C(F)(F)F)n2nc(-c3ccc(C(C)(C)C)cc3)cc2n1,-0.06,/
Cc1ccc(S(=O)(=O)N(CCc2ccccn2)c2ccc(C(C)C)cc2)cc1,3.9,-0.1
O=C(Nc1nnc(/N=C/c2cccs2)s1)c1ccc(Cl)cc1Cl,0.76,0.35
CCC(=O)Nc1c(C(=O)N2CCOCC2)oc2ccccc12,0.73,-0.2
CCC1CCCCN1C(=O)CCNC(=O)Cn1cnc2ccccc2c1=O (centres undefined),-0.08,1.8
Cc1nc2cc(S(=O)(=O)C(F)(F)F)ccc2s1,-0.46,-0.25
Cn1cccc1C(=O)NNC(=O)OCCc1ccc(Br)cc1,-0.22,/
COc1ccc(C(CC(=O)O)N2C(=O)c3ccccc3C2=O)cc1 (centres undefined),0.11,-0.4
O=C(NCc1cccnc1)c1noc2c1CCCC2,-1.1,-0.15
C[C@]12CCC3c4ccc(OC(=O)CCC(=O)O)cc4CCC3C1CCC2=O (some centres undefined),0.68,/
O=C1C=C(c2ccccc2)C[C@H](c2cccc([N+](=O)[O-])c2)[C@H]1n1nnc2ccccc21,-0.12,/
CC1=C(C(=O)OCc2ccc3c(c2)OCO3)C(c2ccc(O)c([N+](=O)[O-])c2)NC(=O)N1 (centres undefined),-0.02,/
CC(C)(C)c1cc(NC(=O)/C=C/c2cccs2)n(-c2ccccc2)n1,/,-0.2
c1ccc(Cn2cc(Cn3nnc(-c4ccccc4)n3)nn2)cc1,-0.045,-0.2
COC(=O)c1ccccc1OCCOCCOc1cccc2cccnc12,19,-1
Fc1ccc(N=Cc2ccccc2)cc1,0.23,/
CC(=O)Nc1ccc(SCC(=O)C(C)(C)C)cc1,/,1.6
CC(C)(C)OC(=O)NC(Cc1cnc[nH]1)C(=O)NNC(=O)CNC(=O)c1cccnc1 (centres undefined),0.3,/
O=c1[nH]c2cc3c(cc2cc1CN(CCN1CCOCC1)C(=S)Nc1ccccc1)OCCO3,/,-0.25
CC(C)CC(=O)O/N=C1\C(=O)N(Cc2ccc(Cl)cc2)c2ccccc21,-1.3,/

# Reprinted from the part before: six entries, then new ones.
SMILES,Ba CapD inh,AID504770
COC(=O)c1ccccc1OCCOCCOc1cccc2cccnc12,19,-1
Fc1ccc(N=Cc2ccccc2)cc1,0.23,/
CC(=O)Nc1ccc(SCC(=O)C(C)(C)C)cc1,/,1.6
CC(C)(C)OC(=O)NC(Cc1cnc[nH]1)C(=O)NNC(=O)CNC(=O)c1cccnc1 (centres undefined),0.3,/
O=c1[nH]c2cc3c(cc2cc1CN(CCN1CCOCC1)C(=S)Nc1ccccc1)OCCO3,/,-0.25
CC(C)CC(=O)O/N=C1\C(=O)N(Cc2ccc(Cl)cc2)c2ccccc21,-1.3,/
Cc1ccc(SCC(=O)Nc2ncc3c(n2)-c2ccccc2CC3)cc1,0.97,/
CCOc1ccc2c(c1)C1=C(SC(C(=O)OC)=C(C(=O)OC)C13SC(C(=O)OC)=C(C(=O)OC)S3)C(C)(C)N2C(=O)c1ccccc1,-0.29,/
c1ccc(-c2[nH]ncc2CN2CCN(Cc3ccc4c(c3)OCO4)CC2)cc1,0.08,0.2
Cc1cc(C(=O)CC(Sc2ccccc2N)c2c(F)cccc2Cl)ccc1Cl (centres undefined),-1.2,/
N#C/C=C/c1ccc(Br)cc1,0.26,-0.85
CCOC(=O)C1=C(O)C(=O)N(CCCn2ccnc2)C1c1ccc(OC)cc1 (centres undefined),/,-0.15
Nc1ncc(C(F)(F)F)cc1Cl,0.59,0.4
Cc1cc(C)n2nc(SCC(=O)N3CCNC3=O)nc2n1,/,0.55
COc1cc(C2C(C#N)=C(N)OC3=C2C(=O)CC(c2ccccc2)C3)ccc1OCc1ccccc1 (centres undefined),-0.085,/
Cc1ccc(Nc2nc3nonc3n3nnnc23)cc1C,-1.1,1.3
CC(C)(CO)NC(=O)NCC12CC3CC(CC(C3)C1)C2,/,0.25
c1ccc(N=P(c2ccc(N3CCOCC3)cc2N2CCOCC2)(N2CCOCC2)N2CCOCC2)cc1,/,0.55
COc1cc2nc(CN(C)Cc3ccc(C)o3)[nH]c(=O)c2cc1OC,/,-0.45
Cc1noc(C)c1CN1C(=O)NC(CCc2ccccc2)C1=O (centres undefined),/,-0.75
CCS(=O)(=O)N1CCC(C(=O)OCC(=O)c2cc(C)n(C(C)C)c2C)CC1,/,1.5
CN(C)C1(CNC(=O)C2COc3ccccc3O2)CCCCC1 (centres undefined),/,1.5
O=C1/C(=C\c2cn(-c3ccccc3)nc2-c2ccc(F)cc2)NC(=S)N1c1ccccc1,0.46,/
COC(=O)c1ccc(Cn2ccnc2)cc1,/,0.55
O=C(CSc1ncnc2nc[nH]c12)c1ccc2ccccc2c1,0.8,0.1
OC1c2ccccc2-c2ccccc2C1O (centres undefined),0.27,-0.25
CN1CCc2nc3sc(C(N)=O)c(N)c3cc2C1,-0.67,0.8
Cn1cnn(CN2CCCCC2)c1=S,/,-0.05
Cc1ccc(CNC(=O)c2cc(C3CC3)nc3c2cnn3C(C)C)cc1,/,0.95
CCCCCCc1c(-c2ccccc2)nc2nc(-c3ccccc3)c(-c3ccccc3)nn12,-0.34,/
Cc1c(S(=O)(=O)Nc2ccc(S(C)(=O)=O)cc2)sc2ccc(Cl)cc12,0.26,-0.95

# (continued)
SMILES,Ba CapD inh,AID504770
CN(Cc1ccccc1)C(=O)C1=CC(c2cccs2)=NS(=O)(=O)N1C,8.4,0.2
CCCN(CCC)CCCNC(=O)C(=O)Nc1cccc(C(F)(F)F)c1,0.66,/
CC(C)(C)S(=O)(=O)Cc1nc(-c2ccc(F)c(F)c2)cs1,-1.1,-1.1
O=C(O)CCCC(=O)N1N=C(c2ccccc2)CC1c1ccccc1 (centres undefined),/,-0.1
NS(=O)(=O)c1ccc(S(=O)(=O)NCCc2c[nH]c3ccccc23)cc1,3.7,-0.25
COc1ccc(C2SCC(=O)N2c2c(C)n(C)n(-c3ccccc3)c2=O)c(OC)c1 (centres undefined),0.005,/
NS(=O)(=O)c1csc(C(=O)Nc2ccccc2)c1,-0.78,-0.6
CC1Cc2ccccc2N1C(=O)COC(=O)c1ccccc1N=NN(C)C (centres undefined),/,0.05
Cc1noc(C)c1S(=O)(=O)N1CCC(C(=O)NCCCN2CC(C)CC(C)C2)CC1 (centres undefined),0.015,-0.6
O=C(NC1CCN(C(=O)Cc2ccccc2)CC1)C1CCCCC1,-0.09,0.5
CC(C)CNC(=O)c1cccc(C(=O)NCC(C)C)c1,0.34,1.5
CCOC(=O)C(Cc1c[nH]c2ccccc12)NC(=O)COc1cc(C)c(Cl)c(C)c1 (centres undefined),-0.41,/
COc1ccc(NC(=S)N2CCOCC2)cc1,0.76,/
CCCCCCC1COC(c2ccc(O)cc2)OC1 (centres undefined),-0.3,-0.8
O=C1CCCC2=C1C(c1cccc(Br)c1)Nc1ccc(C(=O)c3ccccc3)cc1N2 (centres undefined),-0.56,/
Cc1cc(NC(C)c2ccccc2)n2c(nc3ccccc32)c1C#N (centres undefined),2.8,1.1
CSC(=S)Nc1ccc(Cl)cc1,-0.88,0.5
CC1CN(c2nc(-c3ccc([N+](=O)[O-])cc3)nc3ccccc23)CC(C)O1 (centres undefined),-0.005,/
CC1S/C(=N/N=C/c2ccccc2)NC1=O (centres undefined),/,2.1
CCc1ccc(C2=NC(C)(CC)NC(c3cc(Cl)ccc3O)C2)cc1 (centres undefined),0.47,0.35
O=C(N1CCOCC1)N1CCC(NC(=O)C23CC4CC(CC(C4)C2)C3)CC1,/,-0.45
Cc1ccn2c(C(=O)CSc3ccc(Br)cc3)c(C)nc2c1,-0.68,/
Cc1cc(F)ccc1S(=O)(=O)Nc1ccc2c(c1)N(C(=O)C1CC1)CCC2,/,-0.6
Cc1nn(-c2ccccc2)c2c1-c1sc(C(=O)NCc3cccs3)cc1CC2,69,0
O=C(NCCO)c1ccc(Nc2nc(-c3ccccc3)c3cc(Cl)ccc3n2)cc1,-0.72,-0.65

# Continuation:
SMILES,Ba CapD inh,AID504770
CCOC(=O)CSc1nc2c(c(=O)n1-c1ccccc1OC)C1(CCCCC1)Cc1ccccc1-2,1.3,/
Fc1ccc(Nc2nc(NCc3ccco3)c3ccccc3n2)cc1,44,/
COc1ccc2ccccc2c1C1C(C(C)=O)=C(C)N=c2s/c(=C\c3ccc(N(C)C)cc3)c(=O)n21 (centres undefined),-0.065,/
O=S1(=O)N=C2CCCCCN2C(c2ccc(Br)cc2)N1 (centres undefined),/,-0.15
O=C(NCCCc1ccccc1)c1ccc(Br)o1,0.14,-1.2
Cc1cc(Cl)ccc1OCc1nnc(SCC(=O)O)n1C1CCCCC1,/,-0.4
CC(C)c1ccc(C(=O)COC(=O)C(O)c2ccccc2)cc1 (centres undefined),/,-0.6
Cc1cccnc1NC(=O)NC(C)(C(F)(F)F)C(F)(F)F,4,-0.05
Cc1nc2c(Br)cc(Br)cc2c(=O)n1-c1ccc(Cl)c(Cl)c1,-0.2,/
CCN1C(=S)SC(=O)C1=C1C=C(C)N(CCOC)C(C)=C1,/,-0.05
Cc1ccc(-n2c(SCC(=O)Nc3ccccc3C(F)(F)F)nc3[nH]ncc3c2=O)cc1Cl,-0.9,/
c1ccc(-c2ccc(CNCc3ccco3)o2)cc1,/,0.45
N#CC1=C(N)S[C@@H](C(=O)c2ccc(F)cc2)[C@@H]1c1cccs1,5.7,/
CCN(CC)C(=O)Cn1c(=O)n(Cc2ccccc2)c(=O)c2c3c(sc21)CCC3,0.68,1.5
C=CCNC(=O)CSc1nnc(-c2ccc3nonc3c2)n1C,-1.5,1.4
CCCS(=O)(=O)NCc1cn2c(C)csc2n1,0.07,-0.45
Cn1c(CN2CC(c3ccccc3)CC2=O)n[nH]c1=S (centres undefined),0.09,-0.75
CC1=C(C(=O)OCCOC(C)C)C2(O)C(=O)c3ccccc3C2(O)N1 (centres undefined),-0.73,/
COc1ccccc1NC(=O)CCC1CC(=O)OC1c1ccccc1 (centres undefined),/,2
COc1ccc(CNCC2CCC(C(=O)O)CC2)cc1 (centres undefined),-0.005,0.5
COc1ccc(C2=N/C(=C\c3coc4ccccc4c3=O)C(=O)O2)cc1Br,0.56,/
Cc1ccc(Cn2ccc(NC(=O)c3c(-c4ccccc4Cl)noc3C)n2)cc1,-0.075,-0.65
CCC(C)NC(=O)/C=C/c1ccc(C)cc1 (centres undefined),-1.2,-0.5
Cc1ccnc(NC(=O)c2ccc3c(c2)C(=O)N(Cc2ccco2)C3=O)c1,0.51,-0.5
O=C(CO)Nc1cccc2nsnc12,/,0.3

# Continuation.
SMILES,Ba CapD inh,AID504770
FC(F)(F)c1ccc(Cl)c(NNC2=NCCCCC2)c1,/,0.45
CCOC(=O)C1=C(C)N=c2s/c(=C/c3ccccc3O)c(=O)n2C1c1cc(OC)c(OC)cc1Br (centres undefined),-0.12,/
Cn1c(SCC(=O)N2CCCC(c3nc4ccccc4s3)C2)nc2ccccc21 (centres undefined),/,0.4
Cc1nn(C)c(C)c1S(=O)(=O)NCc1ccc2c(c1)CCO2,0.3,-0.35
COC(=O)c1ccccc1NC(=O)Cc1ccc(Cl)cc1,3,0.35
N#Cc1cn(-c2ccc(F)cc2F)c(=O)[nH]c1=O,0.45,/
C=CCN1C(=O)/C(=C/c2ccc(OC)c(Oc3ccc([N+](=O)[O-])cc3[N+](=O)[O-])c2)SC1=S,0.75,/
O=C1CC(Sc2ccc(Cl)cc2)C(=O)N1Cc1cccnc1 (centres undefined),0.99,0.2
COc1ccc(S(=O)(=O)Nc2cncc(C(=O)N3CCN(c4ccc(F)cc4)CC3)c2)cc1,20,-0.7
CCOC(=O)C1C(=O)NCC2CCCC21 (centres undefined),0.57,0.95
CC(=O)Nc1nc2c(s1)C(=O)NCCC2,0.21,/
CCOC(=O)c1nn(-c2cccc(C(F)(F)F)c2)c(=O)cc1C(F)(F)F,-0.25,/
CCn1c(SCc2cc(=O)[nH]c3ccccc23)nnc1C1CC1,/,0.05
CC(C)Cc1nnc(N)s1,0.19,-0.4
Cc1cccc(C2N3CC4(C)CN2CC(C)(C3)C4)c1 (centres undefined),0.17,-0.5
Cc1cccc(C)c1NC1=NC(C)(CO)CS1 (centres undefined),-0.075,-1.1

# Record cards, from the list above. Order of screens: Ba CapD inh	AID504770
# Entry for N#Cc1cn(-c2ccc(F)cc2F)c(=O)[nH]c1=O → 0.45	/
# Entry for CC(=O)Nc1nc2c(s1)C(=O)NCCC2 → 0.21	/
# Entry for FC(F)(F)c1ccc(Cl)c(NNC2=NCCCCC2)c1 → /	0.45

# An excerpt of these results, with bars between the fields.
structure | Ba CapD inh | AID504770
CC(C)Cc1nnc(N)s1 | 0.19 | -0.4
CCOC(=O)c1nn(-c2cccc(C(F)(F)F)c2)c(=O)cc1C(F)(F)F | -0.25 | /
